Compound activity: PubChem, National Center for Advancing Translational Sciences (NCATS)
Lassa entry inh: inhibitors of Lassa virus binding or cell entry | Lassa virus pseudotype entry inhibition, cell reporter; control for the full effect not named in the record | Potency, µM (series often up to 37.9 µM), for inactives: at the top dose activity change, negative = inhibition, usual class: inhibitors | 1.2% of 300,000 active | AID 540256; active means well fitted inhibition curve with a large enough effect; inconclusive means small, poorly fitted or top-dose-only effect, or effect the other way; inactive means flat fitted curve, though single readings scatter; tested in HEK293 cells; note: % is set by controls: 0 for no effect and ±100 for the full control effect; nearly all actives have a fitted effect of over 50% in size; luciferase read-out
Cruzain noTriton: cruzain (T. cruzi) inhibition without detergent | P25779 | 2.3% of 200,000 active | purified cruzain, Z-FR-AMC fluorescence, no detergent | AID 1476 | Potency, µM, inactives show max response, negative = inhibition, most hits filed as inhibitors; active = well fitted curve in the direction sought with a large enough effect; inconclusive = small, poorly fitted or top-dose-only effect, or another doubt; inactive = no such curve, though single readings can be large; an effect the other way counts as inactive or inconclusive;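 note: plate controls were enzyme without inhibitor for no effect and buffer without enzyme for full effect; nearly all actives have a fitted effect of over 40% in size; top concentration of the series not given in the record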
Target sequence (P25779 123-467 limits assumed): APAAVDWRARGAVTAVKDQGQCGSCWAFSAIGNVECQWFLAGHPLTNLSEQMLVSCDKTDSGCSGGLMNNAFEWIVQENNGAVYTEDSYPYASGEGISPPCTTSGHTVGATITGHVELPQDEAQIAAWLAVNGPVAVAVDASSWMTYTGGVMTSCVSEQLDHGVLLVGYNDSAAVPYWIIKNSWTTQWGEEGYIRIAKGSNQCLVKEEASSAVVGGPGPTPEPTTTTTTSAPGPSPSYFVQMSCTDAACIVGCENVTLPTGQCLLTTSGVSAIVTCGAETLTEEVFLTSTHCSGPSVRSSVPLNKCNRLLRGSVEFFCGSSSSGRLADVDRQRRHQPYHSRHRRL
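Detergent-free condition (0.00005% Triton X-100) in acetate buffer pH 5.5 with DTT. 1.5 nM enzyme and compound were pre-mixed 15 min, then 2 uM Z-FR-AMC substrate added; reaction progress from fluorescence change between first and third reads (60 s).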
SARS PLP yeast: SARS-CoV PLP inhibition in yeast; S. cerevisiae expressing SARS-CoV PLpro, growth rescue; control for the full effect not named in the record; Potency, µM (doses to about 32.9 µM), for inactives: at the top dose activity, positive = growth rescue; 0.19% of 330,000 active; AID 485353; note: 0% is about no effect; nearly all actives have a fitted effect of over 55% in size; growth read by luminescence after 48 h
Cruzain Triton: blocks cruzain activity in presence of Triton detergent. P25779. purified cruzain, Z-FR-AMC fluorescence, 0.01% Triton. Potency, µM, for the others: max response, negative = inhibition, usual class: inhibitors. 0.43% of 200,000 active; active = well fitted curve in the direction sought with a large enough effect; inconclusive = small, poorly fitted or top-dose-only effect, or another doubt; inactive = no such curve, though single readings can be large; an effect the other way counts as inactive or inconclusive;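 note: plate controls were neutral wells for no effect and buffer without enzyme for full effect; nearly all actives have a fitted effect of over 40% in size; top concentration of the series not given in the record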
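Purified cruzain (1.5 nM final) was preincubated with compounds for 15 min at room temperature in 100 mM sodium acetate pH 5.5, 5 mM DTT, 0.01% Triton X-100. Reaction started with 2 uM Z-FR-AMC; AMC fluorescence change over 60 s gave activity.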
RE007 growth inh: less growth of the S. pombe RE007 Vpr strain; S. pombe RE007 Vpr strain, BacTiter-Glo ATP luminescence, 24 h; control for the full effect not named in the record; 0.21% of 360,000 active; Potency, µM (series often up to 92.2 µM), without a hit: at the top dose activity change, negative = less growth; AID 651644; active = well fitted falling curve with a large enough effect; inconclusive = small, poorly fitted or top-dose-only effect; inactive = no such curve, though single readings can be large or run the other way;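 note: % is set by controls: 0 for no effect and ±100 for the full control effect; nearly all actives have a fitted effect of over 50% in size; the assay follows cell death caused by Vpr and the record does not say whether a fall means rescue or toxicity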
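Fission yeast strain RE007, carrying one chromosomally integrated HIV-1 vpr copy, was seeded at OD 0.01 in PMG+AL medium with 23 nL pinned compound. After 24 h at 30 °C and 99% humidity, viability was read by BacTiter-Glo luminescence.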
2A StopGo: FMDV 2A StopGo reporter, luciferase signal | human cells with a luciferase reporter of 2A StopGo recoding; control for the full effect not named in the record | Potency, µM (doses to about 57.9 µM), for inactives: at the highest dose signal change, negative = less light | 1.2% of 410,000 active | AID 1159524; active = well fitted falling curve with a large enough effect; inconclusive = small, poorly fitted or top-dose-only effect; inactive = no such curve, though single readings can be large or run the other way; tested in HEK293T cells; note: % is set by controls: 0 for no effect and ±100 for the full control effect; nearly all actives have a fitted effect of over 45% in size; luciferase light after 4 h
NS1 function inh: influenza NS1 inhibition | S. cerevisiae slowed by influenza A NS1, growth recovery by OD600 | Potency, µM (highest dose often 46.1 µM), without a hit: at the highest dose activity, positive = more growth | 0.4% of 270,000 active | AID 2326; note: actives are rising curves; nearly all actives have a fitted effect of over 50% in size
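In this qHTS, NS1 from influenza A is expressed in budding yeast, where it slows growth. Cells are switched from glucose to 2% galactose medium (pH 6.0, -URA), treated with compound, and growth recovery is read at OD600.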
Marburg entry inh: inhibitors of Marburg virus binding or cell entry. Marburg virus pseudotyped entry inhibition, cell reporter; control for the full effect not named in the record; about a third of the inactives were read at about 46 µM. Potency, µM (top dose mostly 37.8 µM), without a hit: at the top dose activity change, negative = inhibition, hits mostly inhibitors. 1.8% of 300,000 active; active = well fitted inhibition curve with a large enough effect; inconclusive = small, poorly fitted or top-dose-only effect, or effect the other way; inactive = flat fitted curve, though single readings scatter; tested in HEK293 cells; about a fifth of its hits are not listed in these tables; note: % is set by controls: 0 for no effect and ±100 for the full control effect; luciferase read-out
* hit, by the source's call; u = inconclusive; x = no result given; & = joins results of further samples; [ ] = another dose, or the depositor's remark. Unless noted, calls come from the whole dose curve; as a rule, active means well fitted rising curve with a large enough effect; inconclusive means small, poorly fitted or top-dose-only effect; inactive means no such curve, though single readings can be large or run the other way. Potency is the fitted concentration of half-maximal effect.

SMILES	Lassa entry inh	Cruzain noTriton	SARS PLP yeast	Cruzain Triton	RE007 growth inh	2A StopGo	NS1 function inh	Marburg entry inh
Cc1ccc(C(=O)OCc2nc3ccccc3s2)o1	u	x	-1%	x	-19%	76%[activator]	x	u
CCOC(=O)c1ccc(NC(=O)C2(c3ccc(Cl)cc3)CCCC2)cc1	-18%	6%	2%	-4.3%	-22%	u	0%	u
Cc1cc(NC(=O)Cn2nc(-c3cccs3)ccc2=O)cc(C)c1Br	-1%	x	-2%	x	-6%	-20%	-1%	u
Brc1cc2c(cc1/C=N/Nc1nc(N3CCOCC3)nc(N3CCOCC3)n1)OCO2	24%	u	5%	-6.5%	4%	-28%	-1%	u
Cn1c(=O)c2[nH]c(NCCCN3CCOCC3)nc2n(C)c1=O	11%	-15%	-3%	-3.2%	-14%	-23%	5%	12%
Cc1cccc(N2C(=O)CS/C2=N\NC(=O)c2cccnc2)c1C	19%	x	0%	x	-3%	-11%	1%	29%[46.1 µM]
CC(C)C(C(=O)NCc1ccco1)N(Cc1ccco1)C(=O)CNS(=O)(=O)c1ccccc1 (stereo not given)	-1%	x	2%	x	0%	4%	4%	-27%[46.1 µM]
CCC(C)C(=O)Nc1nc2ccc(OC)cc2s1 (stereo not given)	u	x	0%	x	-22%	7%	6%	u
Cc1ccccc1/C=N/n1c(-c2ccccn2)n[nH]c1=S	u	x	1%	x	6%	-13%	4%	-2%
COc1cccc(/C=C/C(=O)N2CCN(c3n[nH]c(=O)[nH]c3=O)CC2)c1OC	-5%	x	-2%	x	-4%	12%	x	u
COC(=O)C(CCSC)Nc1ncnc2onc(-c3ccc(F)cc3)c12 (stereo not given)	-16%[46.1 µM]	-3%	x	-2.8%	x	-19%	x	0%[46.1 µM]
Cc1cc(NC(=O)CSc2c(C)[nH]c3ccccc23)no1	x	-7%	0%	-3.5%	5%	-20%	-76%	x
O=C1N/C(=N\N=C\c2cccs2)SC1Cc1ccc(Cl)cc1Cl (stereo not given)	u	u	3%	-3.2%	22%	-10%	-2%	-25%
O=C(COC(=O)CNC(=O)c1ccccc1)NC(=O)NC1CCCCC1	2%[46.1 µM]	x	4%	x	1%	-4%	x	13%[46.1 µM]
O=c1[nH]nc(-c2ccc(NCCCO)c([N+](=O)[O-])c2)c2ccccc12	-19%[46.1 µM]	x	-2%	x	-13%	-10%	2%	-10%[46.1 µM]
COc1ccccc1CNC(=O)C(=O)NCC1CCCO1 (stereo not given)	14%	-9%	16%	-0.3%	7%	45%[activator]	4%	5%
CC(=O)c1ccc(Oc2nc3c(c(=O)n(C)c(=O)n3C)n2C)cc1	0%	x	-1%	x	-15%	-11%	x	17%
CCSc1cc(N2CCOCC2)nc(-c2ccccc2)n1	u	-12%	4%	-5.9%	-14%	-2%	0%	19%
COc1ccc(OC)c(S(=O)(=O)Nc2ccc(F)cc2)c1	u	4%	4%	2.5%	-5%	125%[activator]	0%	-15%
CCc1nnc(NC(=O)c2ncc(Cl)c(Cl)c2Cl)s1	17%	x	-2%	x	-2%	18%	-2%	u
CC(C)NC(=O)c1onc(CSc2nc3ccccc3[nH]2)c1C(=O)NC(C)C	x	x	-1%	x	6%	-13%	-15%	x
Cc1ccc(C(=O)N[C@H](C(=O)NC2CCCCC2)C(C)C)cc1	-12%	x	2%	x	-3%	7%	x	2%
CN1CCN(C(=O)C(=O)c2cn(CC(=O)N3CCCC3)c3ccccc23)CC1	u	x	-9%	x	-23%	-9%	7%	-14%
CC(C)Oc1ccc(C(=O)NCc2ccco2)cc1	-3%	-4%	-3%	4.1%	8%	41%[activator]	-4%	u
O=S(=O)(Nc1ncccn1)c1ccc(Nc2ncnc3ccccc23)cc1	19%	2%	3%	-6.7%	7%	10%	21%	3%
CCOC(=O)N1CCN(c2c(NCCOC)c(=O)c2=O)CC1	x	-11%	8%	2.7%	11%	0%	14%	x
O=C(NCC1CCCO1)c1ccc(N2CCCCC2)c([N+](=O)[O-])c1 (stereo not given)	u	x	-1%	x	-12%	12%	-28%	u
CC(=O)Nc1ccc(NC(=O)COC(=O)CCNS(=O)(=O)c2c(Cl)cccc2Cl)cc1	29%	x	-4%	x	-14%	-18%	x	13%
Cc1nc2cncc(Br)c2n1C	18%	-6%	1%	-0.5%	7%	-9%	2%	8%[46.1 µM]
Cc1c(C)n(CCCN(C)C)c2ncnc(NCc3ccccc3)c12	21%[46.1 µM]	x	-2%	x	-17%	-18%	-1%	u
Cc1ccc(N2C(=O)Nc3ccc(Br)cc3C2(O)C(=O)NCCCN(C)C)cc1C (stereo not given)	-7%	-13%	-3%	-3.6%	1%	-5%	-6%	13%&13%
O=S(=O)(Nc1ccc(-c2cn3ccccc3n2)cc1)c1ccccc1	x	x	0%	x	-9%	19%	3%	x
O=C(O)C1CC2(Cl)C(Cl)=C(Cl)C1(Cl)C2(Cl)Cl (stereo not given)	-7%[46.1 µM]	x	x	x	-2%	-17%	x	-21%[46.1 µM]
Cc1ccc(C(=O)C2C(c3ccc(-c4ccccc4[N+](=O)[O-])o3)NC(=O)NC2(O)C(F)(F)F)cc1 (stereo not given)	u	x	x	x	4%	u	x	u
CC(NS(=O)(=O)/C=C/c1ccccc1)C(=O)NCCc1ccc(S(N)(=O)=O)cc1 (stereo not given)	-5%[46.1 µM]	x	0%	x	-1%	-7%	0%	12%[46.1 µM]
COc1ccc(CNC(=O)COC(=O)CCC2CCCCC2)cc1	1%	-3%	2%	-4.8%	-3%	-21%	-27%	20%
Cc1ccc(NC(=S)N2CCN(C)CC2)c(C)c1	1%	-3%	3%	-3.0%	10%	-21%	16%	27%
CCOC(=O)C1=NNC2C(=O)N(C3CCCCC3)C(=O)C12 (stereo not given)	17%	-4%	13%	6.7%	1%	7%	-5%	u
COc1ccc2c(c1)c1ncn(Cc3ccccn3)c(=O)c1n2C	x	x	0%	x	14%	-19%	-11%	x
CCOC(=O)Cn1cncc1-c1ccc([N+](=O)[O-])cc1	u	-27%	12%	-9.0%	x	37%[activator]	4%	4%
CC(C)N(Cc1ccccc1)C(=S)Nc1cccnc1	15%	x	1%	x	8%	-6%	3%	-3%[46.1 µM]
COC(=O)/C=C/c1c(C)[nH]c(=O)[nH]c1=O	12%	x	2%	x	1%	-8%	1%	2%
Cc1cccc(-n2cc(-c3ccc([N+](=O)[O-])cc3)[nH]c2=S)c1	u	u	-1%	-1.7%	2%	23%	18%	3%
CCC(C)(C)NC(=O)C(c1ccc(OC)cc1)N(C(=O)CCC(=O)Nc1cc(C)on1)c1ccc2c(c1)OCCO2 (stereo not given)	-10%	x	6%	x	18%	-6%	-23%	u
CC(C)(CO)C(O)C(=O)NCCC#N (stereo not given)	x	x	-2%	x	-8%	-23%	-2%	x
O=C(NC1CCCCCCC1)C1CCN(S(=O)(=O)N2CCCC2)CC1	-15%	12%	4%	2.9%	3%	x	-8%	0%
Cc1c(Cl)cccc1N1C(=O)c2ccccc2C1=O	3%	-6%	3%	1.6%	1%	-13%	1%	3%
CC(C)NS(=O)(=O)c1ccc(OCC(=O)Nc2ccc3c(c2)OCO3)cc1	-17%	x	0%	x	-4%	-4%	x	2%[46.1 µM]
COc1ccc(-c2csc(Cc3nnc(N4CCOCC4)n3-c3ccccc3)n2)cc1	-8%	u	-6%	-3.4%	17%	x	-13%	1%&-1%
CC(C)(C)OC(=O)NC(CO)c1cn([C@@H](Cc2cc3ccccc3[nH]2)C(=O)N2CCN(C(=O)OC(C)(C)C)CC2)nn1 (stereo not given in full)	x	x	1%	x	-2%	-3%	5%	x
COc1cc(-c2nc3cnccn3c2NC(C)(C)CC(C)(C)C)ccc1O	x	x	-1%	x	7%	u	8%	x
Cc1cc(C)c(NC(=O)CNC(=O)COC(=O)CN2C(=O)NC3(CCCC3)C2=O)c(C)c1	13%	x	4%	x	20%	-13%	x	3%[46.1 µM]
C=CCSc1nccc(-c2cc(Cl)sc2Cl)n1	u	-13%	0%	4.4%	-2%	-1%	-5%	13%
Cc1cccc(C)c1NC(=S)NCCSc1ccc(Cl)cc1	u	x	-14%	x	10%	1%	x	u
Cc1ccc(N2CCN(S(=O)(=O)c3ccc(-n4cnnn4)cc3)CC2)c(C)c1	-20%&12%[46.1 µM]	10%	6%	-2.5%	-2%	-20%&0%	1%	0%[46.1 µM]
Cc1ccc(C)c(CSc2nnc3[nH]c(=O)cc(C)n23)c1	27%[46.1 µM]	8%	x	-1.1%	x	-12%	x	x
COc1ccc(C(=O)C=Cc2cccs2)c(O)c1	29%[46.1 µM]	x	x	x	-20%	37%[activator]	x	u
CC1=CCC(C(=O)O)C(C(=O)Nc2cccnc2)C1 (stereo not given)	u	x	1%	x	27%	12%	5%	11%[46.1 µM]
COc1ccc(OC)c(C2C3=C(COC3=O)Nc3cc4c(cc32)OCO4)c1 (stereo not given)	-33%	1%	22%	1.2%	-2%	-22%	4%	0.26µM*
COC(=O)Cn1nc(C)c2c(C)n(-c3ccccc3)nc2c1=O	7%[46.1 µM]	3%	x	-0.8%	x	-9%	x	-13%[46.1 µM]
Later entries:
SMILES	Lassa entry inh	Cruzain noTriton	SARS PLP yeast	Cruzain Triton	RE007 growth inh	2A StopGo	NS1 function inh	Marburg entry inh
COc1ccc(N(C)C(=O)c2nc(-c3cccc(F)c3)n3c2CCCCC3)c(OC)c1	-3%[46.1 µM]	-4%	x	-0.3%	x	-8%	x	x
COc1cccc(CNc2ccc(N3CCC(C)CC3)cc2)c1OC	-4%	-9%	8%	-0.7%	4%	-21%	13%	-19%
CCc1ccccc1OCCCOc1ccc(OC)cc1	2%	-6%	u	0.7%	-6%	-21%	2.8µM*	7%
Cc1ccc(C)c(N(C)C(=O)c2ccc3c(=O)n4c(nc3c2)CCCCC4)c1	x	x	-2%	x	3%	-10%	14%	x
COc1ccc2c(c1)c(=Cc1ccc(N(C)C)cc1)c1cc(-c3ccccc3)[n+](C)n12	8.9µM*	x	x	x	13%	14µM*	x	4.5µM*
COc1cccc(CNC(=O)CCCc2c[nH]c3ccccc23)c1	x	x	4%	x	-5%	-14%	1%	x
